# Assay outcomes deposited in PubChem by ICCB-Longwood Screening Facility, Harvard Medical School.
# AID504770 = growth inhibitors of E. coli YBA685 in a screen for V. cholerae RctB (chromosome II replication) inhibitors; E. coli YBA685 rctB-dependent plasmid, OD600 growth, 3 h; active compounds read low; z-score (concentration not given with the values); 130,000 tested, 0.27% active;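 active = z-score under -2 on both plates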;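 note: wells of about 30 µL received 100 nL stock; score is relative to mean and SD of the test wells; the first replicate is given; strong numbers were not always called active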
# Ba CapD inh = CapD enzyme inhibition; 140,000 tested, 0.23% active; AID 492967; z-score (no concentration beside the values); purified CapD enzyme, fluorescence intensity read-out; active compounds read low; some hits fall short of the stated cut;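 active = z-score under -4 in either of two replicates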;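 note: stock transfer was 100 nL into about 40 µL; score is relative to mean and spread of the plate; one replicate is shown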
# The depositor's hits bear a star; / = no result given; & = joins results of further samples. Rows were taken by chance; any-hit rate near 0.37%.
entry	compound	AID504770	Ba CapD inh
1	CC(=O)NCCOc1cccc2ccccc12	-0.9	0.52
2	O=C(CSc1nc2cc(C(=O)NCc3ccco3)ccc2c(=O)n1Cc1ccco1)NCC1CCCO1 (configuration not stated)	/	-0.34
3	CSc1n[nH]c(-c2ccccc2)c1C#N	-0.25	-0.23
4	CC1(C)CC(N2C(=O)OC(C)(C3CC4C=CC3C4)C2(C)O)CC(C)(C)N1 (configuration not stated)	1.1	0.26
5	CSc1sc(C(=O)O)c2c1S(=O)(=O)N(C)c1ccccc1-2	-0.4	0.57
6	O=C(NNC(=O)c1csc(-c2ccc(C(F)(F)F)cc2Cl)n1)c1ccsc1	/	-0.29
7	N#C/C(=C1\CCCN1)c1nc(-c2ccccc2)cs1	1.1	0.7
8	Cc1ccc(/C=N/NC(=O)CC2Sc3ccccc3NC2=O)s1 (configuration not stated)	/	-0.69
9	COC(=O)c1cccc(NC(=O)COC(=O)c2ccc(N3C(=O)CCC3=O)cc2)c1	-0.45	-0.7
10	COc1ccc(C2=NN(C(=O)c3cccc([N+](=O)[O-])c3)C(c3cccc([N+](=O)[O-])c3)C2)cc1 (configuration not stated)	/	-0.28
11	CC(=O)Nc1ccc(I)cc1	/	-0.035
12	CCCc1nc2sc3c(c2c(=O)n1N)CCCC3	0.3	/
13	O=C(N/N=C/c1cccc(O)c1)c1ccc(-n2cnnn2)cc1	0.1	/
14	CCn1c(C(=O)O)c(CC(=O)N2CCN(c3ccc(F)cc3)CC2)c2ccccc21	/	-0.01
15	O=C1CSC(/C=C/c2ccccc2)N1c1cc(Cl)ccc1Cl (configuration not stated)	0.7	0.48
16	CCOC(=O)C1CCCN(C(=O)c2ccc(F)cc2)C1 (configuration not stated)	-0.35	-0.28
17	O=C1c2cccc3cccc(c23)N1S(=O)(=O)c1ccc(Br)cc1	0.7	7.9
18	C=CCNc1nc(N(c2ccccc2)c2ccccc2)nc(-n2ccnc2)n1	0.95	-0.015
19	Cc1ccc(Sc2ccc(C(=O)N3CCOCC3)cc2[N+](=O)[O-])cc1	/	0.045
20	CCCOc1ccc(-c2nc(N)n[nH]2)cc1	-1.8	0.71
21	O=C(NCCOc1ccccc1)C1CCCCC1	-0.4	-0.045
22	CCOC(=O)COn1c(-c2ccc(Cl)cc2)nc2ccc(Cl)cc21	/	0.51
23	CC(C)(C)c1ccccc1OCC(O)CN1CCN(Cc2ccc3c(c2)OCO3)CC1 (configuration not stated)	0	-0.65
24	Cc1c(C(=O)NCCc2ccccc2)oc2ccc(S(=O)(=O)N3CCCC3)cc12	-0.15	-0.38
25	N#Cc1c(Cl)cccc1Oc1ccc(Cl)cc1	/	0.36
26	Cn1cc(C(=O)Nc2ccc(F)c(F)c2F)c(N)n1	/	0.53
27	Cc1cc(C)c2c(C)cc(=O)n(C)c2n1	-0.25	/
28	Cc1ccc(C(=O)Nc2ccc(S(=O)(=O)Nc3nc(C)cc(C)n3)cc2)cc1	/	-0.085
29	O=Cc1c(O)c2ccccc2c2ccccc12	-0.5	0.075
30	CCN(CC)/C(C)=N/C(=O)Nc1ccccc1	-1.9	-0.38
31	N#CC1=C(SCc2ccccc2)SC(c2ccccc2O)NC1=O (configuration not stated)	-3.4*	0.51
32	O=C(NCCO)NC12CC3CC(CC(C3)C1)C2	-0.85	0.72
33	C=C/C(=C\C=C/C)N1C(=O)SC(Nc2ccc(C(=O)O)cc2)C1=O (configuration not stated)	1.4	/
34	O=c1oc2ccc(Br)cc2cc1-c1nnc(-c2ccccc2)o1	-1.1	/
35	N#CC1(C#N)[C@H](c2ccc(F)cc2)[C@@H](C(=O)c2cccs2)N2c3ccccc3C=C[C@@H]21	/	0.51
36	Cc1cccnc1NC1=NCC(C)S1 (configuration not stated)	-0.65	0.17
37	O=C(COC(=O)c1cccnc1Nc1cccc(C(F)(F)F)c1)NC1CCS(=O)(=O)C1 (configuration not stated)	-0.15	/
38	Cc1cc2c(cc1C)N(C(=O)c1cccs1)C(C)(C)c1ssc(=S)c1-2	/	0.52
39	Cc1cc([N+](=O)[O-])ccc1NC(=O)CC1SC(=Nc2ccccc2)N(c2ccccc2)C1=O (configuration not stated)	/	-0.36
40	CCOC(=O)Cc1c(C)[nH]n(-c2ccccc2)c1=O	1.7	-0.28
41	CS(=O)(=O)c1ccc(C(=O)Nc2nccs2)cc1	-1.1	/
42	COC(=O)C1=C(C(=O)OC)SC(=C2C(=S)C(C)(C)N(C(=O)COc3ccc4ccccc4c3)c3ccc(OC)cc32)S1	/	-0.03
43	CN1CCC(=NNC(=O)CSCc2ccccc2)CC1	1.8	-0.065
44	Cc1nc(-n2cccc2)sc1C(=O)NCc1ccc(F)cc1	0.2	-0.32
45	Cc1ncc(CO)c2cc(C(N)=S)c(=Nc3ccc(NC(=O)c4ccco4)cc3)oc12	-0.3	0.02
46	OC1(c2ccc(F)cc2)CC2CCC(C1)N2Cc1nnnn1Cc1ccco1 (configuration not stated)	0.95	/
47	Cn1c(C(C#N)(CC(=O)N2CCCC2)CC(=O)N2CCCC2)nc2ccccc21	0.5	/
48	N#C/C(=C\c1cn(-c2ccccc2)nc1-c1ccc2c(c1)OCCO2)C(=O)Nc1nccs1	-0.5	/
49	O=C1C2C3C=CC(O3)C2C(=O)N1c1ccc(Cl)c(C(F)(F)F)c1 (configuration not stated)	/	0.81
50	CCOC(=O)Nc1sccc1C(N)=O	-0.6	0.14
51	COc1ccccc1Cn1c(=S)[nH]c2cc(C(=O)N3CCc4ccccc4C3)ccc2c1=O	/	0.4
52	CCOc1ccc2c(c1)-c1c(ssc1=S)C(C)(C)N2C(=O)CN1C(=O)CCC1=O	/	-0.34
53	CC(=O)N1C(C(=O)NCc2ccc(C)cc2)CSC12CCN(C)CC2 (configuration not stated)	0.95	-0.14
54	O=C(COC(=O)c1cccnc1Cl)Nc1ccccc1C(F)(F)F	1.1	-1.2
55	CC1C(=O)CCC2C(C)(COc3ccc4ccc(=O)oc4c3)CCCC12C (configuration not stated)	0.15	40
56	Cc1c(Cl)c([N+](=O)[O-])nn1CC(=O)Nc1sc2c(c1C(=O)OC(C)C)CCCC2	/	-0.035
57	N#Cc1c(-c2ccc(Cl)cc2)c2c([nH]c1=O)-c1ccccc1OC2	0.35	1.8
58	COc1ccc2nc(NC(=O)CNS(=O)(=O)c3cccs3)sc2c1	-0.6	0.2
59	N/C(=N\OC(=O)c1csnn1)c1ccc(-c2csnn2)cc1	0.05	0.21
60	CCOC(=O)c1c(N=Cc2ccccc2Cl)n[nH]c1C	-1.1	0.02

# Quoted from the listing.
# Ba CapD inh with cpd 56 is entered as -0.035
# AID504770 with cpd 46 is entered as 0.95
# AID504770 with cpd 48 is entered as -0.5
# Ba CapD inh with cpd 50 is entered as 0.14
# Ba CapD inh with cpd 51 is entered as 0.4
# AID504770 with cpd 59 is entered as 0.05

# Back to the main list with the three entries that preceded the break.
entry	compound	AID504770	Ba CapD inh
58	COc1ccc2nc(NC(=O)CNS(=O)(=O)c3cccs3)sc2c1	-0.6	0.2
59	N/C(=N\OC(=O)c1csnn1)c1ccc(-c2csnn2)cc1	0.05	0.21
60	CCOC(=O)c1c(N=Cc2ccccc2Cl)n[nH]c1C	-1.1	0.02
61	CSc1ncccc1C(=O)Nc1ccccc1N1CCOCC1	1	/
62	CCn1c(=NC(=O)c2ccc(N(C)C)cc2)sc2cc(C)ccc21	1.2	/
63	O=C(CCCN1C(=O)c2ccccc2C1=O)Nc1ccc(S(=O)(=O)Nc2ncccn2)cc1	-0.55	-0.34
64	CC(=O)NCc1cn2ccsc2n1	1.6	/
65	CC(C)(C)OC(=O)N(CCOC(=O)NC(c1ccccc1)c1ccccn1)Cc1cc2ccccc2c2ccccc12 (configuration not stated)	/	1.4
66	O=C1c2ccccc2C(=O)N1CC#Cc1ccccc1	1.1	0.005
67	Cc1cccc(-n2c(SCC(=O)Nc3ccccc3)nc3nc4c(cc3c2=O)COC(C)(C)C4)c1	-0.7	-0.02
68	CN(C)CC1COc2ccccc2C1=O (configuration not stated)	-1.4	0.1
69	CCn1cnc2c(=O)oc3ccccc3c21	-2	0.05
70	Cc1noc(C(=O)N(C)c2ccccc2)c1Cl	0.5	-0.55
71	CCC(C)n1c(SCC(=O)NC2CCS(=O)(=O)C2)nc2ccccc2c1=O (configuration not stated)	1.1	/
72	Cc1ccc(NC(=S)N2CCCc3cccc(C)c32)c(C)c1	/	-0.12
73	N#CC(c1c[nH]c2ccccc12)N1CCCC1 (configuration not stated)	-0.15	/
74	O=C(Nc1cccnc1)c1cccc(C(F)(F)F)c1	-1.1	-0.12
75	CC1CN(S(=O)(=O)c2cccc(C(=O)NCCO)c2)CC(C)O1 (configuration not stated)	0.1	/
76	CC(C)CN(CC(C)C)C(=O)C1CCCCC1C(=O)O (configuration not stated)	1.9	/
77	O=C(CSc1nnc2n1CCCCC2)N(c1ccccc1)C1CCCCC1	-0.5	/
78	CCOC(=O)C(C)n1nc(C)c2c(C)n(-c3ccccc3)nc2c1=O (configuration not stated)	-0.25	-0.21
79	CCCN1CCC(N(C(=O)Nc2ccccc2)C2CC2)CC1	/	-0.48
80	CCOC(=O)N1CCC(NC(=O)/C=C/C(=O)O)CC1	-0.9	-0.83
81	CCC1(C)OC(=O)N2CCc3ccccc3C21C (configuration not stated)	-0.4	0.49
82	COC(=O)c1cc(NC(=O)CSc2ncnc3sc(C)c(C)c23)cc(C(=O)OC)c1	/	0.11
83	CSc1nn(-c2ccccc2)c[n+]1-c1ccccc1	0.25	0.28
84	Cc1cc(C)nc(SCC(=O)Nc2ccc(F)c(Cl)c2)n1	-0.1	-0.99
85	CSc1nc2n(n1)C(C(C)C)C(C(=O)Nc1ccc(Cl)cc1)=C(C)N2 (configuration not stated)	3.2	-1.1
86	COCC(=O)N1CCCc2ccccc21	-1.5	0.34
87	Cc1cc2ccc(=O)oc2cc1OC[C@@H](O)C(C)(C)O	-0.75	44
88	CC(C)n1c2ccccc2c2nc3ccccc3nc21	0	-0.67
89	O=C(c1ccc(CN2CCOCC2)o1)C(F)(F)F	-0.2	0.055
90	COc1ccc(C2CC(=O)C3=C(C2)NC(=O)CC3c2ccccc2)cc1OC (configuration not stated)	0.15	0.06
91	Cc1cccc(Nc2nc3ccccc3c3nncn23)c1	0.35	1.2
92	Cc1cc(C(C)(C)C)cc(C)c1CC1=NCCN1	-0.35	-0.73&0.63
93	Cc1cc(C)nc(N2CCN(C(=O)Nc3ccc(F)cc3F)CC2)n1	/	-0.22
94	COc1ccc(OC)c(C2NC(=O)NC(C)=C2C(=O)OCCSc2ccccc2)c1Br (configuration not stated)	/	-0.51
95	COc1ccc(-c2nnn(CN3CCCC3c3cccs3)n2)cc1OC (configuration not stated)	-0.05	/
96	CC(C)C(=O)Nc1cscc1S(=O)(=O)c1ccc(Cl)cc1	-0.75	-0.1
97	Cc1nonc1NCc1ccc(N(C)C)cc1	0.5	/
98	N#CC(C#N)=Cc1ccsc1	-1.8	-2.1
99	O=C(CC(NS(=O)(=O)c1ccc(Br)cc1)c1ccco1)NC1CC1 (configuration not stated)	0.1	56
100	Cc1ccc(S(=O)(=O)NC(=O)N2CCC(c3nc(-c4cnccn4)no3)CC2)cc1	/	-0.45
101	COc1ccc(-n2nc(C#N)c(N)c(C#N)c2=N)cc1	-0.55	-0.81
102	CC(C)(C)c1ccc(COC(=O)N2CCN(c3ccc(C(F)(F)F)cn3)CC2)cc1	/	1.2
103	CN(C)c1ccc(/C=C/C=N/n2cnnc2)cc1	-1	-2.9
104	CCOCCCn1c(=S)[nH]c2cc(C(=O)N3CCN(c4ccccc4)CC3)ccc2c1=O	0.85	-1
105	CCn1cc(S(=O)(=O)Nc2cc(C)on2)cn1	-0.1	1.1

# The closing 7 compounds of the part before open the next one.
entry	compound	AID504770	Ba CapD inh
99	O=C(CC(NS(=O)(=O)c1ccc(Br)cc1)c1ccco1)NC1CC1 (configuration not stated)	0.1	56
100	Cc1ccc(S(=O)(=O)NC(=O)N2CCC(c3nc(-c4cnccn4)no3)CC2)cc1	/	-0.45
101	COc1ccc(-n2nc(C#N)c(N)c(C#N)c2=N)cc1	-0.55	-0.81
102	CC(C)(C)c1ccc(COC(=O)N2CCN(c3ccc(C(F)(F)F)cn3)CC2)cc1	/	1.2
103	CN(C)c1ccc(/C=C/C=N/n2cnnc2)cc1	-1	-2.9
104	CCOCCCn1c(=S)[nH]c2cc(C(=O)N3CCN(c4ccccc4)CC3)ccc2c1=O	0.85	-1
105	CCn1cc(S(=O)(=O)Nc2cc(C)on2)cn1	-0.1	1.1
106	CC(=O)N1CCn2c3c(c4cc(C5CCCCC5)ccc42)CCCC31 (configuration not stated)	/	-0.21
107	Cc1ccccc1NCN1C(=O)C2CCC(C)(C1=O)C2(C)C (configuration not stated)	/	-0.43
108	COc1ccccc1NC(=O)c1ccc(S(=O)(=O)N2CCCC2)cc1	0.05	0.55
109	CC(C)(C)NC(=O)C1Cc2ccccc2CN1c1ncccc1[N+](=O)[O-] (configuration not stated)	/	1.6
110	COc1cc(C2CC(=O)NC(SCC(=O)Nc3ccccc3C)=C2C#N)cc(Br)c1O (configuration not stated)	/	0.29
111	COC(=O)c1ccc(/N=C/N(C)C)o1	-1	-1.4
112	O=P1(N2CCOCC2)C=C(c2ccccc2)c2c(c3ccccc3c3cc(Cl)ccc23)O1 (configuration not stated)	/	0.96
113	CCCCC1CCC(C(=O)ON2C(=O)c3cccc4cccc(c34)C2=O)CC1 (configuration not stated)	-0.15	0.075
114	Cc1ccc(N2CCN(S(=O)(=O)c3cccc(Cl)c3Cl)CC2C)cc1 (configuration not stated)	/	-0.38
115	N#Cc1ccccc1OC1CCOC1=O (configuration not stated)	0	/
116	COc1ccc(-c2cc(C(=O)NCC(=O)O)c(C)o2)cc1OC	-0.55	/
117	COc1ccc(/C=C2N=C(/C=C/c3ccc(C)cc3)OC\2=O)cc1OC(C)=O	-0.9	-0.1
118	c1ccc(Nc2c(-c3ccsc3)nc3cnccn23)cc1	0.15	4.8
